Vaccinia inh: blocks a specific stage of Vaccinia orthopoxvirus infection, primary screen, cell-based, single point; Vaccinia-infected cells, mCherry/Venus stage reporter fluorescence; active compounds read low; some inactives read as strong as hits; activity change (mCherry), % (test concentration not listed); 89,000 compounds, 0.01% hits; AID 1053133, 2014;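 active = mCherry past -33% and 40 or more points under the early reporter, replicates agreeing; inconclusive = past -33% without that gap or agreement; tested in A549 cells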;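 note: scaled between vehicle wells and reference inhibitor wells; 23 nL library stock went into each well; one replicate is shown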
Vaccinia inh Venus: also measured in Vaccinia inh; calls as there; activity change (Venus), %; measured here: Venus reporter, other viral stage;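 negative = less Venus signal; first of two replicates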
The depositor's hits bear a star; ? = inconclusive; · = not tested or not shown.

SMILES | Vaccinia inh | Vaccinia inh Venus
C[C@H](CO)N1C[C@H](C)[C@@H](CN(C)Cc2cncnc2)Oc2cc(-c3ccncc3)ccc2S1(=O)=O | 4.5 | -9.5
COc1ccc(S(=O)(=O)N(C)C[C@@H]2Oc3c(NC(=O)Nc4ccc(F)cc4)cccc3C(=O)N([C@@H](C)CO)C[C@H]2C)cc1 | -11.1 | -9.0
Cc1ccc(S(=O)(=O)N[C@@H]2CC[C@@H](CCNC(=O)C3CCCC3)O[C@H]2CO)cc1 | -10.0 | 0.0
COCC#Cc1cnc2c(c1)C(=O)N([C@@H](C)CO)C[C@@H](C)[C@H](CN(C)C(=O)C1CCCCC1)O2 | 3.5 | 13.6
C[C@@H]1CN([C@H](C)CO)C(=O)c2cc(-c3ccccc3)cnc2O[C@@H]1CN(C)C(=O)NC1CCCC1 | 6.7 | 7.1
COc1ccccc1-c1ccc2c(c1)O[C@@H](CN(C)S(=O)(=O)c1ccc(C)cc1)[C@@H](C)CN([C@@H](C)CO)S2(=O)=O | -25.9 | -22.1
COc1ccc(CN(C)C[C@H]2Oc3ccc(NS(=O)(=O)c4ccc(F)cc4)cc3CC(=O)N([C@H](C)CO)C[C@@H]2C)cc1 | -2.8 | -8.7
C[C@H](CO)N1C[C@H](C)[C@H](CN(C)S(=O)(=O)c2ccc(F)cc2)OCCCC[C@H](C)Oc2ccc(NC(=O)CCCN(C)C)cc2C1=O | 3.4 | -2.2
CN1C(=O)c2cc(NC(=O)c3ccc4c(c3)OCO4)ccc2OC[C@@H]2O[C@@H](CC(=O)O)CC[C@H]21 | 18.9 | 8.7
CCNC(=O)[C@H]1[C@H](CO)[C@H]2Cn3c(ccc(-c4ccc(F)cc4)c3=O)[C@@H]1N2C(=O)c1ccccn1 | 12.5 | 17.5
COc1ccc(S(=O)(=O)N(C)C[C@H]2OCCCC[C@@H](C)Oc3ccc(NS(=O)(=O)c4cn(C)cn4)cc3C(=O)N([C@H](C)CO)C[C@@H]2C)cc1 | 39.6 | 14.2
COc1cccc(NC(=O)C[C@H]2CC[C@@H]3[C@@H](COc4ccc(NC(C)=O)cc4C(=O)N3C)O2)c1 | -12.6 | -5.0
CC(C)C#Cc1ccc([C@H]2[C@@H](C#N)N(C(=O)c3ccccn3)[C@@H]2CO)cc1 | -7.4 | -11.3
COc1ccc(S(=O)(=O)Nc2cccc3c2O[C@@H](CN(C)S(=O)(=O)c2ccc(OC)cc2)[C@@H](C)CN([C@H](C)CO)C3=O)cc1 | 2.9 | 3.9
Cc1noc(C)c1S(=O)(=O)Nc1ccc2c(c1)CC(=O)N([C@H](C)CO)C[C@H](C)[C@@H](CN(C)S(=O)(=O)c1cn(C)cn1)O2 | 25.3 | 16.7
C[C@@H]1CN([C@@H](C)CO)C(=O)c2cccc(NC(=O)c3nc4ccccc4s3)c2O[C@H]1CN(C)S(=O)(=O)c1ccc(F)cc1 | -5.8 | -0.4
C[C@@H]1CCCCO[C@H](CN(C)Cc2ccc3c(c2)OCO3)[C@H](C)CN([C@@H](C)CO)C(=O)c2cc(NC(=O)c3ccccc3)ccc2O1 | ? | ·
COc1cccc(C#Cc2ccc([C@@H]3[C@@H](CO)N4C(=O)CN(C(=O)Cc5cccnc5)C[C@@H]34)cc2)c1 | ? | ·
CCc1csc(N2[C@H](CO)[C@@H](c3ccc(-c4ccc(F)cc4)cc3)[C@@H]2C#N)n1 | -25.2 | -14.4
COc1ccccc1C(=O)Nc1ccc2c(c1)C(=O)N(C)C[C@@H](OC)[C@H](C)CN(C(C)=O)[C@H](C)CO2 | 0.9 | 2.2
Cc1noc(C)c1NC(=O)N(C)C[C@H]1OCCCC[C@@H](C)Oc2ccc(NC(=O)Cc3ccccc3)cc2C(=O)N([C@@H](C)CO)C[C@@H]1C | 18.1 | 6.8
C[C@@H]1CN([C@H](C)CO)C(=O)c2cccc(NC(=O)Nc3ccc(F)cc3)c2O[C@@H]1CN(C)C(=O)NC1CCCCC1 | -20.5 | -21.9
C[C@@H](O)C#Cc1ccc([C@H]2[C@@H](CO)N3CCCCN(C(=O)c4ccc5c(c4)OCO5)C[C@@H]23)cc1 | 8.3 | 0.2
C[C@@H]1CN([C@@H](C)CO)C(=O)Cc2cc(NC(=O)Cc3ccccc3)ccc2O[C@@H]1CN(C)C(=O)NC1CCCCC1 | 7.2 | 7.0
COc1ccc(NC(=O)N(C)C[C@H]2OCCCC[C@H](C)Oc3ccc(NC(=O)CCCN(C)C)cc3C(=O)N([C@@H](C)CO)C[C@@H]2C)cc1 | 25.3 | 11.6
COc1ccc(S(=O)(=O)Nc2ccc3c(c2)C(=O)N([C@@H](C)CO)C[C@H](C)[C@H](CN(C)Cc2ccncc2)OCCCC[C@H](C)O3)cc1 | 11.4 | -15.5
Fc1cccc(CN2C[C@@H]3N[C@H](C2)[C@@H]3c2ccc(-c3cccc(F)c3)cc2)c1 | ? | ·
CCC(=O)N(C)C[C@@H]1Oc2ncc(-c3ccc(C#N)cc3)cc2C(=O)N([C@@H](C)CO)C[C@H]1C | 15.5 | 5.1
O=C(C[C@@H]1CC[C@H](NC(=O)c2cccnc2)[C@@H](CO)O1)NCCN1CCCCC1 | 11.3 | 11.3
C[C@H](CO)N1C[C@H](C)[C@@H](CN(C)C(=O)Nc2ccc(C(F)(F)F)cc2)Oc2ccc(NC(=O)C3CCCCC3)cc2C1=O | -1.7 | -3.0
C[C@H](CO)N1C[C@H](C)[C@@H](CN(C)Cc2ccc(Cl)c(Cl)c2)Oc2c(NC(=O)Nc3cccc4ccccc34)cccc2C1=O | -26.8 | -14.7
O=C1O[C@H](c2ccccc2)[C@H](c2ccccc2)N2[C@H]1[C@@H](C(=O)N1CCCCCCC1)[C@]1(C(=O)Nc3ccc(C#CC4(O)CCCCCC4)cc31)[C@H]2c1ccccc1OCCO | -8.8 | -17.3
O=C(c1ccccn1)N1CC[C@@H]2[C@@H](CO)Nc3ccc(-c4ccccc4)cc3[C@@H]21 | 9.9 | -6.3
C[C@H]1CN([C@@H](C)CO)C(=O)Cc2cc(NC(=O)NC3CCCCC3)ccc2O[C@H]1CN(C)Cc1ccc(-c2ccccc2)cc1 | -26.8 | -15.3
C[C@@H]1CN([C@@H](C)CO)C(=O)c2cccc(NS(C)(=O)=O)c2O[C@H]1CN(C)Cc1ccc(Oc2ccccc2)cc1 | 14.1 | 28.5
Cc1ccc(S(=O)(=O)Nc2ccc3c(c2)C(=O)N([C@H](C)CO)C[C@H](C)[C@H](CN(C)S(C)(=O)=O)O3)cc1 | 16.0 | 14.6
C[C@@H]1CN([C@@H](C)CO)C(=O)c2cc(NC(=O)Cc3ccccc3)ccc2O[C@@H]1CN(C)S(=O)(=O)c1ccc(F)cc1 | -3.2 | -4.3
C[C@@H]1CCCCO[C@H](CN(C)Cc2ccncc2)[C@H](C)CN([C@@H](C)CO)C(=O)c2cc(NC(=O)c3ccccc3)ccc2O1 | ? | ·
CO[C@H]1CN(C)C(=O)c2cc(C#N)ccc2OCC[C@@H]2CC[C@@H](OC)[C@H](CN(C)C(=O)[C@@H]1C)O2 | 8.8 | 3.9
COC(=O)[C@@H]1[C@@H](CO)[C@@H]2Cn3c(ccc(-c4ccccc4F)c3=O)[C@@H]2N1C(=O)CC1CC1 | 9.7 | 11.6

Gathered by group, the entries above with a cyano group.
SMILES | Vaccinia inh | Vaccinia inh Venus
CC(C)C#Cc1ccc([C@H]2[C@@H](C#N)N(C(=O)c3ccccn3)[C@@H]2CO)cc1 | -7.4 | -11.3
CCc1csc(N2[C@H](CO)[C@@H](c3ccc(-c4ccc(F)cc4)cc3)[C@@H]2C#N)n1 | -25.2 | -14.4
CCC(=O)N(C)C[C@@H]1Oc2ncc(-c3ccc(C#N)cc3)cc2C(=O)N([C@@H](C)CO)C[C@H]1C | 15.5 | 5.1
CO[C@H]1CN(C)C(=O)c2cc(C#N)ccc2OCC[C@@H]2CC[C@@H](OC)[C@H](CN(C)C(=O)[C@@H]1C)O2 | 8.8 | 3.9

Later entries:
SMILES | Vaccinia inh | Vaccinia inh Venus
CCCNC(=O)C[C@H]1CC[C@H]2[C@H](COc3ccc(NC(=O)CC)cc3C(=O)N2C)O1 | 1.7 | 1.5
CCCN(C)C[C@H]1Oc2ncc(C#CCOC)cc2C(=O)N([C@@H](C)CO)C[C@H]1C | 19.4 | 12.7
C[C@H](CO)N1C[C@H](C)[C@@H](CN(C)C(=O)Nc2ccc(C(F)(F)F)cc2)Oc2c(NS(=O)(=O)c3ccccc3)cccc2C1=O | 22.2 | 9.3
Cc1noc(C)c1S(=O)(=O)Nc1ccc2c(c1)C(=O)N([C@H](C)CO)C[C@H](C)[C@H](CN(C)Cc1ccc(Oc3ccccc3)cc1)O2 | -10.1 | -11.0
C[C@H](CO)N1C[C@H](C)[C@@H](CN(C)S(=O)(=O)c2ccc(Cl)cc2)Oc2c(NS(=O)(=O)c3ccccc3)cccc2C1=O | -8.0 | 3.3
CN(C)C(=O)c1ccc(-c2ccccc2[C@H]2[C@@H](C#N)N(C(=O)C3CCCCC3)[C@@H]2CO)cc1 | -8.1 | -12.3
C[C@H](CO)N1C[C@H](C)[C@H](CN(C)Cc2ccncc2)Oc2ccc(NS(=O)(=O)c3cn(C)cn3)cc2CC1=O | 14.1 | 8.0
C[C@H]1CN([C@@H](C)CO)C(=O)c2cccc(NC(=O)Nc3ccc(F)cc3)c2O[C@H]1CN(C)Cc1ccc(C(F)(F)F)cc1 | -35.0 | -22.0
CC(C)NC(=O)Nc1ccc2c(c1)C(=O)N([C@H](C)CO)C[C@@H](C)[C@H](CN(C)Cc1ccc(C(F)(F)F)cc1)OCCCC[C@H](C)O2 | ? | ·
COc1ccc2c3c([nH]c2c1)[C@H](CO)N(C(C)=O)CC31CCN(S(=O)(=O)c2ccccc2)CC1 | 12.1 | 6.3
C[C@@H]1CCCCO[C@@H](CN(C)Cc2ccncc2)[C@H](C)CN([C@H](C)CO)C(=O)c2cc(N(C)C)ccc2O1 | -0.7 | 5.6
CCc1cnc(N2[C@H](C#N)[C@H](c3ccc(C4=CCCC4)cc3)[C@H]2CO)s1 | -6.5 | 0.2
COc1ccc(NC(=O)N(C)C[C@H]2Oc3c(NC(=O)Nc4ccc5c(c4)OCO5)cccc3C(=O)N([C@H](C)CO)C[C@@H]2C)cc1 | 15.7 | 8.3
C[C@H]1CN([C@@H](C)CO)S(=O)(=O)c2ccc(/C=C/c3ccccc3)cc2O[C@@H]1CN(C)C(=O)CN1CCOCC1 | -28.6 | -17.0
Cc1ccccc1NC(=O)Nc1ccc2c(c1)C(=O)N(C)[C@@H]1CC[C@@H](CC(=O)NCC3CC3)O[C@H]1CO2 | 9.3 | 4.4
Cc1noc(C)c1NC(=O)Nc1ccc2c(c1)C(=O)N([C@@H](C)CO)C[C@H](C)[C@@H](CN(C)CC1CCCCC1)OCCCC[C@H](C)O2 | 15.6 | 8.0
Cc1ccc(S(=O)(=O)Nc2cccc3c2O[C@@H](CN(C)S(=O)(=O)c2cn(C)cn2)[C@@H](C)CN([C@H](C)CO)C3=O)cc1 | 6.8 | 2.3
C[C@@H]1CN([C@@H](C)CO)C(=O)c2cccc(NC(=O)c3nc4ccccc4s3)c2O[C@H]1CN(C)C(=O)Nc1ccccc1 | 4.9 | -9.2
CO[C@@H](CN(C)Cc1nccs1)[C@@H](C)CN([C@H](C)CO)S(=O)(=O)c1ccc(F)cc1 | 18.9 | 16.7
CN1C(=O)c2cc(NS(=O)(=O)c3ccc(F)cc3)ccc2OC[C@@H]2O[C@@H](CC(=O)O)CC[C@H]21 | 16.3 | 14.5

Three structures from above, arranged by SMILES length, rising.
SMILES | Vaccinia inh | Vaccinia inh Venus
COc1ccc2c3c([nH]c2c1)[C@H](CO)N(C(C)=O)CC31CCN(S(=O)(=O)c2ccccc2)CC1 | 12.1 | 6.3
Cc1ccccc1NC(=O)Nc1ccc2c(c1)C(=O)N(C)[C@@H]1CC[C@@H](CC(=O)NCC3CC3)O[C@H]1CO2 | 9.3 | 4.4
CC(C)NC(=O)Nc1ccc2c(c1)C(=O)N([C@H](C)CO)C[C@@H](C)[C@H](CN(C)Cc1ccc(C(F)(F)F)cc1)OCCCC[C@H](C)O2 | ? | ·

Carrying on:
SMILES | Vaccinia inh | Vaccinia inh Venus
C[C@H](CO)N1C[C@H](C)[C@H](CN(C)Cc2cccnc2)Oc2ncc(C#CC3(O)CCCC3)cc2C1=O | 17.4 | 10.9
COc1ccc(-c2cnc3c(c2)C(=O)N([C@H](C)CO)C[C@H](C)[C@H](CN(C)Cc2ccc4c(c2)OCO4)O3)cc1 | -18.1 | -4.3
CCCC(=O)Nc1ccc2c(c1)C(=O)N(C)C[C@H](OC)[C@@H](C)CN(C(=O)c1ccccc1F)[C@H](C)CO2 | 1.8 | 1.0
CN(Cc1ccccc1)CC1CC(c2ccccc2)OC(c2ccc(NC(=O)CCCCCCC(=O)O)cc2)O1 (stereo not drawn) | 12.9 | 6.3
C[C@H](CO)N1C[C@H](C)[C@H](CN(C)Cc2ccc(C(F)(F)F)cc2)Oc2ccc(NC(=O)Nc3ccc4c(c3)OCO4)cc2CC1=O | -29.6 | -20.6
CO[C@H]1CN(C)C(=O)c2cc(NS(=O)(=O)CC(F)(F)F)ccc2OC[C@H](C)N(C(=O)c2ccc3c(c2)OCO3)C[C@@H]1C | 16.4 | 10.8
O=C(C[C@H]1CC[C@@H](NC(=O)c2ccccn2)[C@H](CO)O1)NCc1cccc(F)c1 | 14.2 | 12.1
C[C@H]1CCCCO[C@@H](CN(C)C(=O)Nc2ccc3c(c2)OCO3)[C@@H](C)CN([C@@H](C)CO)C(=O)c2cc(NC(=O)Nc3ccc(F)cc3)ccc2O1 | 17.4 | 24.7
CC(C)(C)[S@](=O)N1Cc2cc(C(=O)NCCN3CCCC3)nc(-c3cccc(-c4ccc(C#N)cc4)c3)c2[C@@H]1CCO | -3.6 | 18.4
COc1ccc(-c2ccccc2[C@H]2[C@@H](C#N)N(C(=O)NC(C)C)[C@H]2CO)cc1 | 11.0 | 7.9
Cc1ccccc1S(=O)(=O)NCC[C@H]1CC[C@@H](NC(=O)Nc2cccc(Cl)c2)[C@@H](CO)O1 | -30.3 | -23.5
O=C(C[C@@H]1CC[C@H]2[C@@H](COC[C@@H](O)CN2C(=O)Nc2ccc(F)cc2)O1)NCCc1ccccc1 | 2.0 | 4.4

Bioassay records deposited in PubChem by Broad Institute.

These rows are one share of the data. The share of hits here may be higher or lower than overall.
